Autofluor counter: flagged as autofluorescent in microsphere protease counterscreen; fluorescence intensity (test concentration not listed); compound autofluorescence counterscreen, microsphere flow cytometry; hits give high values; 360,000 compounds, 3.1% hits;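 active = at least 3 SD above the mean of all compounds, about 16000 in these data; inconclusive = too few beads counted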;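 also: 100 nL of 1 mM stock went into each well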
ugtP null kill: kills S. aureus RN4220 lacking UgtP | 330,000 compounds, 0.54% hits | AID 1259309 | growth inhibition, % (no concentration beside the values) | S. aureus RN4220 ugtP deletion, OD600 growth, 16 h; some inactives read as strong as hits;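 active = z-score under -3 and OD600 up to 0.15 on both plates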;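 also: plate controls were untreated wells for no effect and antibiotic for full effect; wells of about 80 µL received 100 nL stock; the first replicate is given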
Mtb hypoxia rep: inhibitors of hypoxia-regulated fluorescent reporter in Mycobacterium tuberculosis; M. tuberculosis hypoxia-regulated fluorescent reporter, fluorescence; fluorescence inhibition, % (no concentration beside the values); 300,000 compounds, 0.1% hits; AID 1159583;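 active = 35 to 45% if threefold the growth effect, above 45% if 1.5-fold the growth effect; inactive = the rest, general growth blockers included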;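 also: wells of about 50 µL received 100 nL stock; 0% = vehicle wells and 100% = reference inhibitor wells; whole bacteria with a GFP reporter of the hypoxia response; strong numbers were not always called active; many hits fall short of the cut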
PrP UTR inh: inhibition of PrP 5' UTR reporter expression; cell-based PrP 5' UTR mRNA reporter, plate reader; inhibition, % (concentration not given with the values); 340,000 compounds, 0.35% hits;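 active = every replicate at 50% or more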;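 also: 0 = median of the neutral control wells; tested in H4 reporter cells; numbers are from one replicate; inactives centre near -14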
Sa RN4220 lethal: S. aureus RN4220 growth inhibition | OD600, 16 h | inhibition, % (no concentration beside the values) | 330,000 compounds, 0.33% hits;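 active = z-score of -3 or lower and OD600 up to 0.18 on both plates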;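 also: plate controls were untreated cells for no effect and reference antibiotic for full effect; stock transfer was 100 nL into about 80 µL; one replicate is shown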
BJeLR viability: kills HRASV12-expressing BJeLR cells; BJeLR (HRASV12) viability, CellTiter-Glo ATP luminescence, 48 h; reference of the scale not given here; inhibition, % (concentration not given with the values); AID 1554; 300,000 compounds, 0.17% hits;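 active = replicate mean above 50%; inconclusive = above 50% but judged a plate artefact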;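 also: 50 nL library stock added to about 25 µL; numbers are from one replicate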
Mtb hypoxia rep growth: second read-out of Mtb hypoxia rep, no call of its own (marks repeat the call); growth inhibition, %; measured here: M. tuberculosis growth (absorbance);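 0% = vehicle and 100% = reference antibiotic; read after six days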
Active calls of the source: *; ? = inconclusive; . = not tested or not shown.

Screens in order – Autofluor counter, ugtP null kill, Mtb hypoxia rep, Mtb hypoxia rep growth, PrP UTR inh, Sa RN4220 lethal, BJeLR viability
Cn1c(=O)c(-[n+]2ccccc2)c([O-])c2ccccc21
  4854, 10, ., ., -32, 4.0, 9
COCCn1c(SCC(=O)N(C(C)C)C(C)C)nnc1-c1cc2ccccc2cc1O
  23496*, 0, 6, 15, -2, 4.4, 1
CC(CC(=O)NC(C)c1ccc2c(c1)OCCO2)c1ccccc1 (stereo unspecified)
  9715, 2, 1, 6, -19, 6.9, 4
O=[N+]([O-])/C=C/c1cn(Cc2ccc(Cl)cc2)c2ccccc12
  4418, 77, 11, 7, 19, 90*, 3
CC(NC(=O)c1ccccc1F)C(=O)O (stereo unspecified)
  4679, 5, ., ., -7, 0.3, 1
Cc1ccc(NC(=O)c2ccc(NCC3CCCO3)c([N+](=O)[O-])c2)cc1Cl (stereo unspecified)
  2510, 7, ., ., -20, -3.4, -7
Cc1cc(=O)oc2c3c(cc(OCC(=O)Nc4ccc(CCO)cc4)c12)OC(C)(C)CC3
  5483, -4, ., ., -10, 13, 4
O=C(COC(=O)c1ccccc1)Nc1ccc(Cl)cn1
  3548, 8, 7, 1, -25, 4.5, 9
CCc1nnc(NC(=O)C2CC(=O)N(c3ccc4c(c3)OCCO4)C2)s1 (stereo unspecified)
  2503, 2, 14, 5, -14, -0.8, 7
Cc1cc(NC(=O)CSCC(=O)Nc2cc(C(F)(F)F)ccc2N2CCCC2)no1
  ?, 5, 6, -2, -20, 3.9, 14
Cc1ccc(OCC(=O)N/N=C/c2cccn2C)cc1
  4166, ., ., ., -1, ., -1
CC(=NN1C(=O)c2ccccc2NC1c1ccccc1)c1ccccc1O (stereo unspecified)
  ., -1, -2, 8, ., 0.8, .
CC(C)COC(=O)N1CCN(S(=O)(=O)c2ccc3c(c2)CCC3)CC1
  5999, 1, 2, 8, -9, -1.0, .
CCOC(=O)N1CCN(C(=O)c2ccc(Cl)c(S(=O)(=O)N3CCCC3)c2)CC1
  4540, 3, 7, 5, -6, -1.4, -9
CCOc1ccc(OCC)c(NC(=O)CN(C)S(=O)(=O)c2cnc[nH]2)c1
  2383, -7, 11, 11, -53, 7.4, -7
O=S(=O)(NCc1ccccc1)c1ccccc1NCc1ccc(Cl)cc1
  3539, -9, 1, 4, -82, 2.7, .
CN(C)CCC=C1c2ccccc2COc2ccccc21
  ., -3, 5, -2, ., 2.8, .
O=C(Nc1ccc(CN2CCOCC2)cc1)c1ccc(N2CCCC2)c([N+](=O)[O-])c1
  4378, 0, 4, 6, -28, 2.6, 6
CCCC1OC2CC3C4CCC5=CC(=O)C=C[C@]5(C)C4C(O)C[C@]3(C)[C@]2(C(=O)CO)O1 (stereo partly specified)
  ., -8, -8, -8, ., 4.6, .
O=c1c2c3c(sc2nc2n1CCC2)CCCC3
  4645, 4, -6, -5, -6, 6.2, -19
COc1cc(S(=O)(=O)NCC2CCCO2)ccc1Br (stereo unspecified)
  8007, 6, 9, 12, 9, 3.9, 5
Cc1ccc(NS(=O)(=O)c2cccs2)cc1S(=O)(=O)N1CCCCCC1
  4954, -6, 8, -1, 6, 24, 3
CCN(CC)S(=O)(=O)c1ccc(N2CCOCC2)c(NC(=O)Cc2ccccc2F)c1
  2634, 12, 6, 7, -32, 4.8, -14
CCS(=O)(=O)N1CCC(C(=O)Nc2cccc(F)c2)CC1
  3880, 2, 8, 2, -1, 7.3, -5
CSc1nc2nc3c(c(=O)n2[nH]1)CN(Cc1ccccc1)CC3
  3351, 4, ., ., -7, 6.6, -2
CCC(C)C12CN3CCN(CC(C)(C3)C1O)C2 (stereo unspecified)
  4023, 3, 12, -6, -18, 3.0, -2
Fc1ccc(NC(=S)N2CCCC2)cc1Cl
  2009, 11, 0, -1, -14, 4.8, 2
OCCC1CN(CC#Cc2ccccc2)CCN1C1CCCC1 (stereo unspecified)
  4136, 0, -4, 5, -13, 11, 5
Cc1ccc2cc(CN(Cc3ccco3)S(=O)(=O)c3c(C)ccc4nsnc34)c(=O)[nH]c2c1
  8055, 33, 3, 2, -19, 4.0, 15
CN(C)S(=O)(=O)c1ccc2c(c1)C(=O)c1cc(S(=O)(=O)N(C)C)ccc1CC2
  3742, 1, -3, -6, -11, 6.1, .

Twelve structures from above, arranged by count of non-hydrogen atoms, descending:
Screens in order – Autofluor counter, ugtP null kill, Mtb hypoxia rep, Mtb hypoxia rep growth, PrP UTR inh, Sa RN4220 lethal, BJeLR viability
Cc1ccc2cc(CN(Cc3ccco3)S(=O)(=O)c3c(C)ccc4nsnc34)c(=O)[nH]c2c1
  8055, 33, 3, 2, -19, 4.0, 15
CCN(CC)S(=O)(=O)c1ccc(N2CCOCC2)c(NC(=O)Cc2ccccc2F)c1
  2634, 12, 6, 7, -32, 4.8, -14
O=C(Nc1ccc(CN2CCOCC2)cc1)c1ccc(N2CCCC2)c([N+](=O)[O-])c1
  4378, 0, 4, 6, -28, 2.6, 6
CCOC(=O)N1CCN(C(=O)c2ccc(Cl)c(S(=O)(=O)N3CCCC3)c2)CC1
  4540, 3, 7, 5, -6, -1.4, -9
CC(=NN1C(=O)c2ccccc2NC1c1ccccc1)c1ccccc1O (stereo unspecified)
  ., -1, -2, 8, ., 0.8, .
Cc1ccc(NS(=O)(=O)c2cccs2)cc1S(=O)(=O)N1CCCCCC1
  4954, -6, 8, -1, 6, 24, 3
CC(C)COC(=O)N1CCN(S(=O)(=O)c2ccc3c(c2)CCC3)CC1
  5999, 1, 2, 8, -9, -1.0, .
CSc1nc2nc3c(c(=O)n2[nH]1)CN(Cc1ccccc1)CC3
  3351, 4, ., ., -7, 6.6, -2
CN(C)CCC=C1c2ccccc2COc2ccccc21
  ., -3, 5, -2, ., 2.8, .
COc1cc(S(=O)(=O)NCC2CCCO2)ccc1Br (stereo unspecified)
  8007, 6, 9, 12, 9, 3.9, 5
O=c1c2c3c(sc2nc2n1CCC2)CCCC3
  4645, 4, -6, -5, -6, 6.2, -19
Fc1ccc(NC(=S)N2CCCC2)cc1Cl
  2009, 11, 0, -1, -14, 4.8, 2

Carrying on:
Screens in order – Autofluor counter, ugtP null kill, Mtb hypoxia rep, Mtb hypoxia rep growth, PrP UTR inh, Sa RN4220 lethal, BJeLR viability
CC(=O)Nc1ccc(OCCC[n+]2cccc(C(=O)[O-])c2)cc1
  4137, 5, 1, 0, -15, 3.2, 4
c1ccc2sc(N3CCCN(Cc4nc(-c5cnccn5)no4)CC3)nc2c1
  4219, 5, 14, 13, -17, 8.2, -6
CN(C)c1c(N)c(=O)oc2ccccc12
  3250, 4, 8, 30, -21, 1.8, 0
Cc1ccccc1-n1nnnc1SCC(=O)NC1CC1
  4313, 2, 11, 5, -9, 4.6, .
COc1cccc(N(C(=O)Cn2nnc(-c3cccs3)n2)C(C(=O)NC(C)C)c2ccc(C)o2)c1 (stereo unspecified)
  2898, -7, -5, 0, 14, 5.6, -2
CCO[C@@H]1OC(C(=O)NCc2nc3ccccc3[nH]2)=C[C@H](c2csc3ccccc23)[C@H]1CCCO
  4307, ., ., ., 0, ., -14
Cc1ccc(N2C(=O)c3ccccc3C2=O)cc1
  4243, 4, 11, 2, -23, 2.3, 16
CCOc1ccccc1N1CCN(Cc2ccco2)CC1
  4303, 2, -12, -3, -19, 4.0, -2
CCOC(=O)c1c(CSc2cccs2)n(C)c2cc(Br)c(O)c(CN(C)C)c12
  3179, -3, 3, 21, -11, 2.0, 8
CCOC(=O)C1(CC2CC2)CCN(Cc2cn(C)c3ccccc23)CC1
  2451, -4, -1, -2, -13, 4.2, -5
COc1ccc(OC)c(CCNC(=O)CC2(CC3=NS(=O)(=O)c4ccccc4N3)CCCC2)c1
  4113, -2, -9, 6, 0, 3.0, 10
CCOc1ccccc1NC(=O)CSc1nnc2ccc(-c3cccnc3)nn12
  4595, 2, 0, -7, -13, -0.2, -11
COc1ccc(OC)c(NC(=O)c2ccc3c(c2)CCN3S(C)(=O)=O)c1
  2862, 4, 18, 8, -12, 1.5, -6
O=C(Nc1ccccc1Cl)NN1CCCCCC1
  2905, -10, 9, 5, -5, 6.5, .
COc1ccc(-c2coc3cc(OC(=O)N4CCOCC4)ccc3c2=O)cc1
  4528, 0, 2, -1, -20, 0.4, 2

New compounds follow.
Short keys: A = Autofluor counter; B = ugtP null kill; C = Mtb hypoxia rep; D = Mtb hypoxia rep growth; E = PrP UTR inh; F = Sa RN4220 lethal; G = BJeLR viability
> COc1ccc(N2C(=O)CSC2c2ccc(F)cc2)cc1 (stereo unspecified)
  A = 3923	B = 0	C = 5	D = 2	E = -9	F = 1.1	G = -3
> COc1cccc(OC)c1C(=O)Nc1ccc(N2CCN(C(=O)c3cccs3)CC2)cc1
  A = 4391	B = 12	C = -7	D = -2	E = -17	F = 2.7	G = -8
> COc1cc(CC(=O)NCCCc2ccccc2)cc(OC)c1OC
  A = 3735	B = 4	C = -2	D = 5	E = -4	F = -1.7	G = -5
> COCCNC(=O)COc1ccc(C)cc1C
  A = 4065	B = 6	C = .	D = .	E = -7	F = 3.5	G = 5
> Clc1ccccc1-c1ncc(-c2ccccc2)o1
  A = 4173	B = 13	C = 13	D = 1	E = -68	F = 2.2	G = -6
> Cc1cc(Cl)ccc1OC(C)C(=O)OCC(=O)c1ccc[nH]1 (stereo unspecified)
  A = .	B = 1	C = 1	D = -4	E = 1	F = 3.1	G = .
> C/C=C/c1ccc(OCCCCNCc2ccco2)c(OC)c1
  A = 5049	B = 2	C = 9	D = 8	E = -24	F = -3.6	G = 1
> Cc1[nH]c2c(C(=O)N3CCCC(CCC(=O)NCc4ccccc4F)C3)cccc2c1C (stereo unspecified)
  A = 4365	B = 2	C = 5	D = -3	E = -39	F = 4.6	G = -3
> Nc1nonc1/C(=N/O)N1CCCC1
  A = 4070	B = .	C = .	D = .	E = -29	F = .	G = -2
> O=C(CCN1C(=O)C2C3C=CC(C3)C2C1=O)NCC1CCCO1 (stereo unspecified)
  A = 5919	B = -1	C = .	D = .	E = -11	F = 1.4	G = 5
> COc1ccc(CCNC(=O)/C=C/c2ccc(C)cc2)cc1OC
  A = 15072	B = 3	C = 6	D = 7	E = -18	F = 0.2	G = -18
> Cc1cnc(CNC(=O)c2ccc3oc(C(C)C)nc3c2)[nH]1
  A = .	B = 6	C = 3	D = -15	E = -18	F = 2.8	G = 1
> COc1ccc(OCCCSc2ncccn2)cc1
  A = 3198	B = 4	C = 18	D = 7	E = -51	F = -7.3	G = 3
> C=CCN1C2CCCC1CC(NC(=S)Nc1ccc(Cl)cc1)C2 (stereo unspecified)
  A = 4396	B = -2	C = -10	D = 5	E = 5	F = -1.6	G = -3
> CCC(=O)Oc1ccc2c(C)c(Cl)c(=O)oc2c1
  A = 3839	B = 1	C = .	D = .	E = -13	F = 7.8	G = 2
> COc1cccc(N2CC(NC(=O)C(=O)c3c[nH]c4ccccc34)CC2=O)c1 (stereo unspecified)
  A = .	B = -2	C = 0	D = -1	E = -2	F = 0.8	G = 4
> Cc1ncoc1C(=O)NC1CC(C)(C)Cc2c1cnn2-c1ccc(F)cc1 (stereo unspecified)
  A = 5666	B = 4	C = 6	D = 9	E = -3	F = 2.6	G = -5
> Cc1ccc(-c2nc(N)sc2C)cc1
  A = 4226	B = 11	C = -3	D = -13	E = -31	F = 3.4	G = 0
> COc1cccc(C(=O)NC(=S)N2c3ccccc3CC2C)c1OC (stereo unspecified)
  A = 5757	B = 1	C = -1	D = -4	E = -12	F = 6.0	G = -5
> O=c1c2ccccc2oc2cc(-c3ccc4cc[nH]c4c3)ccc12
  A = 2945	B = 2	C = 19	D = 16	E = -48	F = 4.2	G = .
> O=C(COC(=O)c1cccc(S(=O)(=O)NCc2ccccc2)c1)NCC1CCCO1 (stereo unspecified)
  A = 2771	B = 2	C = 17	D = 4	E = -10	F = 6.3	G = 12
> CCc1cccc2c1NC1(CCCC1)CC2C (stereo unspecified)
  A = 3556	B = 4	C = 3	D = 3	E = -10	F = 5.0	G = 4
> Cc1cc2cc3c(cc2nc1SCC(=O)N1CCOCC1)OCO3
  A = 3758	B = 2	C = 10	D = 1	E = -25	F = 2.9	G = -16
> O=C(CSc1ccccc1)NNC(=O)c1ccccc1O
  A = 5452	B = -4	C = -2	D = 3	E = -5	F = 2.3	G = 13
